Source: PubChem BioAssay (ICCB-Longwood Screening Facility, Harvard Medical School)
Vaccinia pol inh = inhibitors of vaccinia virus processive DNA synthesis (E9 polymerase); in vitro processive DNA synthesis, absorbance read-out; active compounds read low; some inactives read as strong as hits; normalized absorbance, % (no concentration beside the values); 0.94% of 46,000 active;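 active = replicate mean up to 90% and picked by the depositor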;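 note: 100% = median of the test wells of a plate; 100 nL library stock went into each well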
* hit, by the source's call; & = joins results of further samples.

structure,Vaccinia pol inh
CC(C)(C)c1cc2ncnc(N3CCCCC3)c2s1,89.7
O=C(O)CCc1ccc(F)cc1,100.2
CCSc1nc2ccccc2n1CC(=O)N1CCCCC1,100.6
Cc1nc2c(Br)cc(Br)cc2c(=O)n1Cc1cccs1,103.0
CNC(=O)CCCc1nc(-c2ccccc2)no1,100.7
O=C(Cc1cccs1)N1CCN(c2ccccc2)CC1,95.0
N#C/C(=C\c1ccc(-c2cccc(C(F)(F)F)c2)o1)c1ccccc1,99.6
O=C(Nc1ccno1)N1CCOCC1,98.5
CCN(CC)c1ccc2cc(-c3nnc(-c4cccnc4)o3)c(=O)oc2c1,96.4
O=C(/C=C\c1cn(-c2ccccc2)nc1-c1cccs1)N1CCOCC1,95.9
CC1CCN(C(=O)CSc2nnc3sc4ccccc4n23)CC1,102.2
O=C(CSc1ncnc2sc3c(c12)CCCC3)Nc1ccccc1,102.0
O=C(/C=C/c1ccc(F)cc1)Nc1nc2ccccc2s1,103.1
Cn1c(O)c(C=Nc2cccc(Cl)c2)c2ccccc21,99.9
COc1ccc2cc(S(=O)(=O)n3nnc4ccccc43)ccc2c1,100.2
CCN1CCCC1CNC(=O)Cn1c(=O)c2cccn2c2ccccc21 (stereo unspecified),89.7
CC(C)(C)OC(=O)N1CCCN(S(=O)(=O)c2cc(Cl)ccc2Cl)CC1,97.6
O=C(NC1CCCCC1)C1CCC(Cn2c(=S)[nH]c3ccccc3c2=O)CC1 (stereo unspecified),96.3
O=C(NCc1ccccc1Cl)c1cnccc1C(F)(F)F,96.9
O=C(O)C1CCCCC1C(=O)NCC1CCCO1 (stereo unspecified),111.2
CC(NCC(O)COc1ccc(Br)cc1)c1ccccc1 (stereo unspecified),99.0
CC1Cc2ccccc2N1C(=O)CSc1ccccc1 (stereo unspecified),105.2
Cc1cc(=O)[nH]c(N2CCCCC2)n1,102.4
CSc1ccc(-c2ccco2)nn1,101.5
CN(C(=O)CSC1=NCCS1)C1CCCCC1,99.5
CC(=O)Nc1ccc(C(=O)OCC(=O)N2CCCC(C)C2)cc1 (stereo unspecified),81.4
O=C(CSc1ncnc2c1oc1ccccc12)NC1CCCCC1,102.3
CC(Cc1ccccc1)NCc1ccccc1O (stereo unspecified),110.8
COc1ccc(Cc2cc(-c3cccs3)n[nH]c2=O)c(OC)c1OC,104.0
O=C(NN1CCCCC1)C(O)(c1ccsc1)c1ccsc1,99.8
N#CC1=C(N)NC(SCc2ccccc2)=C(C#N)C1c1ccccc1Cl (stereo unspecified),98.5
O=C(CCN1CCCCC1)c1cc2ccccc2o1,99.1
C1CCN(CC2COC3(CCCC3)O2)C1 (stereo unspecified),103.3
CCNC(=O)Oc1ccccc1,103.5
c1ccc2c(N3CCOCC3)nnc(N3CCOCC3)c2c1,100.6
CCOC(=O)N1CCC(NC(=O)Cn2nc(Cc3cccnc3)c3ccccc3c2=O)CC1,94.4
CCOc1nc(-c2ccc(Cl)cc2)nc2ccccc12,99.9
COc1ccc(C2CC(=O)Oc3ccc(C(C)(C)C)cc32)cc1 (stereo unspecified),100.1
O=S1(=O)N=C(Oc2ccccc2)c2ccccc21,95.4
COC(=O)c1ccc(C[N+]2(C)CCCCC2)cc1,99.9
O=C(CSC1=NCCS1)NC1CCCCC1,102.2
CCCc1cc(OC(=O)N(C)C)nc(-c2cccc(C)c2)n1,117.3
Cc1cc(-n2c(SCc3ccccc3Cl)nc3n[nH]c(C)c3c2=N)ccc1Cl,100.5
COc1ccc(Cl)cc1NC(=O)Nc1ccc(N(C)C)cc1,101.8
O=C(NC1C2CC3CC(C2)CC1C3)c1ccc(Br)o1 (stereo unspecified),100.1
NC(N)=Nc1nc2ccccc2[nH]1,100.4
CCOc1ccc(-c2n[nH]c(=S)n2C2C=CCCC2)cc1 (stereo unspecified),100.2
CC12COC3(CN)CC1CCC32C (stereo unspecified),100.2
O=C1NN=C(c2cc3ccccc3oc2=O)CC(c2ccco2)N1 (stereo unspecified),99.8
N#Cc1nc(-c2ccccc2Cl)oc1N1CCCC1,102.0
COc1ccccc1/C=C/C(=O)N1CCCC(c2ccccc2)C1 (stereo unspecified),100.0
CCC(C)(Nc1n[nH]c(=O)[nH]c1=O)C(=O)O (stereo unspecified),99.2
COc1ccc(C(=O)NCc2nnc(SC/C=C/c3ccccc3)o2)cc1,99.5
CCc1ccc(NS(=O)(=O)c2ccc3nc(-c4ccccc4)[nH]c3c2)cc1,91.7
CN1C(=O)/C(=C/c2ccccc2Cl)Sc2ccc(C(=O)O)cc21,46.2*
CC1CN(C(=O)Cc2ccc(Cl)cc2)CC(C)O1 (stereo unspecified),93.2
CN1c2ccccc2C(=O)/C(=C\Nc2ncccn2)S1(=O)=O,107.9
Cc1cccc2c(-c3ccccc3)cc(=O)[nH]c12,94.7
O=C(CSc1nc2ccccc2c(=O)n1-c1ccccc1)NCCc1ccccc1,98.3
COc1ccc2c(c1)C(=O)N(Cc1ccccc1)C(=O)C2,92.2

(more compounds)
structure,Vaccinia pol inh
CCN(CC)C(=O)Sc1c(Br)cc(Br)cc1Br,95.0
CCCCS(=O)(=O)/C=C/C1C2C=CC(C2)C1S(=O)(=O)CCCC (stereo unspecified),97.1
CN(C(=O)COC(=O)c1cncc(Br)c1)c1ccccc1,94.5
O=C(Nc1ccccc1C(=O)O)c1cc[n+]([O-])cc1,100.3
CC1(C)CC(=O)C=C(NCC2CCN(C(=S)Nc3ccccc3)CC2)C1,99.8
COc1ccc(CCC(=O)NCc2cn3ccc(C)cc3n2)cc1,103.0
O=C(Nc1csc2ccccc12)N1CCOCC1,107.9
O=C(O)C1CCC(CNCc2c(Cl)cccc2Cl)CC1 (stereo unspecified),101.1
Cc1c(C)c(C)c(C(=O)c2ccccc2C(=O)NN)c(C)c1C,108.8
CCCC(=O)Nc1nc2c(ncn2C2O[C@H]3COP(=O)(O)O[C@@H]3[C@@H]2OC(=O)CCC)c(=O)[nH]1 (stereo partly specified),99.8
O=C(O)c1nccnc1C(=O)NC1CCN(Cc2c(F)cccc2Cl)CC1,100.9
FC(F)(F)Oc1ccccc1NC(=S)NCc1ccc2c(c1)CCO2,95.4
Cc1ccccc1OCC(=O)OCC(=O)N1c2ccccc2CC1C (stereo unspecified),94.8
CCC(NCc1c(O)ccc2c3c(c(=O)oc12)CCC3)C(=O)O (stereo unspecified),101.6
Cc1c(C=Nc2cccc3nsnc23)c(=O)n2c([nH]c3ccccc32)c1C#N,99.8
CC(C)Cn1c(SCC(=O)Nc2ccc(F)cc2F)nc2ccccc2c1=O,100.1
CCC(Sc1nc(C)cc(C)n1)C(=O)Nc1sc2c(c1C#N)CCCC2 (stereo unspecified),100.4
COc1ccc(N=C2SCC(c3ccc(C)cc3)=NN2CCO)cc1,100.1
O=C(CCCC1=NS(=O)(=O)c2ccccc2N1)N1CCCCCC1,99.7
Cc1ccc2[nH]c(=O)c(-c3noc(C(C)(C)C)n3)cc2c1,103.5
O=C(NC1CCCC(C(F)(F)F)C1)c1ccncc1 (stereo unspecified),88.1
Cc1cccc(C)c1NC1OC(=O)c2ccccc21 (stereo unspecified),99.2
COc1ccccc1S(=O)Cc1ccc(C(=O)O)o1 (stereo unspecified),100.6
Cc1ccc(C(=O)Nc2ccc(Oc3ccccc3)cc2)cc1I,99.0
Clc1ccc2c(c1)C(N1CCNCC1)=Nc1ccccc1O2,100.4
Cc1cc(C(=O)CSc2nnc3ccccn23)c(C)n1-c1ccccc1,99.6
CC(=O)Oc1cccc2c1OC(C)(C)C2,93.7
CCC1CCCCN1C(=O)c1ccc(C(C)(C)C)cc1 (stereo unspecified),98.5
CCC1CCCCN1C(=O)CSc1nnc(-c2ccc(Cl)cc2)o1 (stereo unspecified),104.4
CCC(=O)N(CCc1ccccc1)C1CC(=O)N(c2ccccc2)C1=O (stereo unspecified),97.2

Structural class, the entries above containing two or more sulfur atoms.
structure,Vaccinia pol inh
CC1CCN(C(=O)CSc2nnc3sc4ccccc4n23)CC1,102.2
O=C(CSc1ncnc2sc3c(c12)CCCC3)Nc1ccccc1,102.0
CN(C(=O)CSC1=NCCS1)C1CCCCC1,99.5
O=C(NN1CCCCC1)C(O)(c1ccsc1)c1ccsc1,99.8
O=C(CSC1=NCCS1)NC1CCCCC1,102.2
CCCCS(=O)(=O)/C=C/C1C2C=CC(C2)C1S(=O)(=O)CCCC (stereo unspecified),97.1
CCC(Sc1nc(C)cc(C)n1)C(=O)Nc1sc2c(c1C#N)CCCC2 (stereo unspecified),100.4

More entries follow:
structure,Vaccinia pol inh
CCSC1=NCCN1S(C)(=O)=O,98.3
O=C(O)c1ccc(N/C=C/C(=O)c2ccco2)cc1,99.3
CC1CCc2cc(F)ccc2N1C(=O)Nc1ccc(F)cc1 (stereo unspecified),97.6
CN(C)C(=O)COC(=O)c1cc(Cl)cc(Cl)c1N,102.2
CN(n1cnc2ccsc2c1=O)S(=O)(=O)c1ccc(Cl)cc1,108.5
COCC(=O)OCC1CCCN2CCCCC12 (stereo unspecified),98.4
O=C(CC(NCc1ccco1)C(=O)O)Nc1ccccc1 (stereo unspecified),100.8
CCOC(=O)c1ccc(NC(=O)CSC2=NC(=O)C(CC)C(=O)N2)cc1 (stereo unspecified),99.3
CCc1ccc(NC(=O)CSc2nc3ccccc3c(=O)n2CCCC(=O)N2CCCC2)cc1,100.0
COC(=O)c1cc(N2CCNCC2)nc2ccccc12,88.7
CCCOc1c(Br)cc(C(=O)O)cc1OC,87.8
CCOC(=O)c1cccnc1SCC(=O)Nc1ccc(C)cc1,90.7
CC1CCN(C(=O)COC(=O)/C=C/c2ccccc2Cl)CC1,94.1
O=C(NCCCN1CCCCCC1)c1ccc2c(Cl)c3c(nc2c1)CCCC3,99.8
COc1ccccc1C1CCN(C(=O)c2cccnc2Sc2ccc(C)cc2)CC1,100.2
CCCN(C(=O)[C@H]1[C@@H]2C[C@@H]3[C@H]1C(=O)O[C@@H]3C2)c1ccccc1OCC,108.9
CCOc1ccc(NC(=O)N(CCC(C)C)C(C)c2cccs2)cc1 (stereo unspecified),103.8
Cc1cc(NC(=O)c2ccc3nc(N4CCOCC4)sc3c2)ccc1Br,106.5
O=C(/C=N/O)Nc1cc(C(F)(F)F)cc(C(F)(F)F)c1,100.8
O=C1c2ccccc2C(=O)N1CNc1ccccc1,99.4
O=C(Cc1noc2ccccc12)NCCOC12CC3CC(CC(C3)C1)C2,86.4
Clc1cccc(Cl)c1NC1=NCCC1,87.7
O=C(Nc1ccccc1F)NC1CCCc2ccccc21 (stereo unspecified),98.3
CC(=NCCc1ccc(Cl)cc1)c1ccccc1O,96.8
COc1ccc(-c2noc(N3CCc4ccccc43)n2)cc1,102.2
CCN(CC)CCNS(=O)(=O)c1c(C)c(C)c(C)c(C)c1C,101.3
COC(=O)c1ccc2c(c1)sc1nc(-c3ccc(Cl)cc3)cn12,104.4
CC1(C)CC(NC(=O)COc2ccc(C#N)cc2)CC(C)(C)N1,101.0
CCN1CCN(C(=O)C2CCN(S(=O)(=O)c3ccc4c(c3)nc(C)n4C3CCCC3)CC2)CC1,95.4
OC(c1ccc2c(c1)OCO2)c1cccs1 (stereo unspecified),100.2
Cc1nn(-c2ccccc2)c2sc(C(=O)NCC3CCCO3)cc12 (stereo unspecified),86.1
CC(=O)N1C2=C(CCCC2)C(=O)NC12CCCCC2,101.0
CC(C)(C)c1cc(C(=O)Nc2ccc(Cl)cc2)n(Cc2ccccc2)n1,92.6
CC1Cc2ccccc2N1S(=O)(=O)c1ccc2[nH]c(=O)c(=O)[nH]c2c1 (stereo unspecified),100.7
Cn1cc(SCC(=O)NC2CCCCC2)c2ccccc21,100.6
Cc1ccc(CN2CCc3[nH]c(=O)[nH]c(=O)c3C2)cc1,98.4
CC(C)CCNC(=O)Cc1cccs1,102.0
O=C(Cc1csc(Nc2nc(=S)[nH]c3ccccc23)n1)N1CCN(c2cccc(Cl)c2)CC1,100.2
O=C(CN1C(=O)S/C(=C/c2ccccc2)C1=O)Nc1ccccc1Cl,88.5
O=S(=O)(Nc1ccc(Cl)cc1)c1ccccc1,103.4
CC(C)Cn1c(O)c(C2=c3ccccc3=NC2=O)c2ccccc21,105.9
O=S(=O)(c1ccc(Cl)nc1)N(Cc1ccccc1)Cc1ccccc1,94.3
CS(=O)(=O)Nc1ccc([N+](=O)[O-])cc1Oc1ccccc1,99.9&97.9
CC(C)COC(=O)n1n[n+]([O-])c2ccccc21,100.2
O=C(CSc1oc(-c2ccco2)nc1S(=O)(=O)c1ccc(Cl)cc1)NC1CCCCC1,101.4

Individual results from the list.
Result of `CC(C)CCNC(=O)Cc1cccs1` in Vaccinia pol inh: 102.0
Result of `CC(C)(C)c1cc(C(=O)Nc2ccc(Cl)cc2)n(Cc2ccccc2)n1` in Vaccinia pol inh: 92.6
Result of `CC(C)Cn1c(O)c(C2=c3ccccc3=NC2=O)c2ccccc21` in Vaccinia pol inh: 105.9

Continued.
structure,Vaccinia pol inh
CCN1CCc2c(OCC(=O)N3CCC(Cc4ccccc4)CC3)cccc2C1=O,100.1
CCc1cccc2c(=O)c(CN(C)C)c(C)[nH]c12,83.1
N#Cc1ccc(-c2cccs2)[nH]c1=S,99.3
Oc1ccccc1C=Nc1cccc(N=Cc2ccccc2O)c1,99.9
Nc1cccc(-c2nn(-c3ccccc3)cc2CCC(=O)O)c1,89.7
Cc1ccc2cc(CCNC(=O)C(C)C)c(=O)[nH]c2c1,97.6
CCOC(=O)c1c(CN(CC)CC)n(-c2ccccc2)c2ccc(O)cc12,112.9
CNC(=O)c1c(-c2ccccc2)c2cc(OC)ccc2n1CCN(C)C,99.5

These rows are one share of the data; the hit share may differ from the screen's.
